# Arbovirus inh = arbovirus infection inhibition | hit rate 0.37% among 200,000 | arbovirus infection cell-based antiviral screen | inhibition, % at 10 µM;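 active means inhibition from about 30%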;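 further: bluetongue infection of BSR cells; cell survival read as ATP light after 72 h; 0% = infected wells without compound and 100% = uninfected wells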
# Mtb bLac sens = beta-lactam sensitization of Mtb H37Rv | M. tuberculosis H37Rv growth with meropenem, percent inhibition; hits of this screen are not shown here | inhibition, % at 25 µM | hit rate 0.27% among 330,000;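 active means about 74% or more and at least 40 points above the plate without the antibiotic, then above 30% in a dose series; inconclusive means first-round hits that could not be retested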;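 further: growth measured after seven days incubation then overnight dye step; 0% = bacteria only wells and 100% = bacteria with antibiotic; twin plates without the antibiotic show which effects depend on it; some results filed as inactive read as strong as hits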
# YopH PTP inh = blocks Yersinia enterocolitica YopH tyrosine phosphatase; hit rate 0.16% among 140,000; fluorescence Ex485/Em525; inhibition, %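 (about 10 µM by stock and volumes)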;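 active means inhibition of 50% or more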;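 further: controls were vehicle for no effect and minimum signal wells for full effect; inactives centre near -20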
# Mtb growth = M. tuberculosis H37Rv growth inhibitors, H37Rv strain (AID 1626). hit rate 0.95% among 220,000. M. tuberculosis H37Rv growth inhibition; higher % means a stronger effect. inhibition, % at 10 µM, or IC50 in µM where a hit was titrated;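 active means confirmed in a dose series; inconclusive means inhibition above 80% but not taken into the dose series; inactive means below 80% or under 30% at every dose of the series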;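 further: bacteria incubated seven days before Alamar blue readout; 0% = bacteria only wells and 100% = bacteria with antibiotic wells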
# RecA intein inh = blocks M. tuberculosis RecA intein splicing; P9WHJ3; cell-free RecA intein splicing, fluorescence; inhibition, %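 (about 9 µM by stock and volumes)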; hit rate 0.75% among 290,000; in the data active means inhibition above about 30%; inconclusive means no clear call, values can overlap the other calls;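 further: 0% = vehicle wells and 100% = reference inhibitor control wells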
# Target sequence (P9WHJ3 whole entry, looked up): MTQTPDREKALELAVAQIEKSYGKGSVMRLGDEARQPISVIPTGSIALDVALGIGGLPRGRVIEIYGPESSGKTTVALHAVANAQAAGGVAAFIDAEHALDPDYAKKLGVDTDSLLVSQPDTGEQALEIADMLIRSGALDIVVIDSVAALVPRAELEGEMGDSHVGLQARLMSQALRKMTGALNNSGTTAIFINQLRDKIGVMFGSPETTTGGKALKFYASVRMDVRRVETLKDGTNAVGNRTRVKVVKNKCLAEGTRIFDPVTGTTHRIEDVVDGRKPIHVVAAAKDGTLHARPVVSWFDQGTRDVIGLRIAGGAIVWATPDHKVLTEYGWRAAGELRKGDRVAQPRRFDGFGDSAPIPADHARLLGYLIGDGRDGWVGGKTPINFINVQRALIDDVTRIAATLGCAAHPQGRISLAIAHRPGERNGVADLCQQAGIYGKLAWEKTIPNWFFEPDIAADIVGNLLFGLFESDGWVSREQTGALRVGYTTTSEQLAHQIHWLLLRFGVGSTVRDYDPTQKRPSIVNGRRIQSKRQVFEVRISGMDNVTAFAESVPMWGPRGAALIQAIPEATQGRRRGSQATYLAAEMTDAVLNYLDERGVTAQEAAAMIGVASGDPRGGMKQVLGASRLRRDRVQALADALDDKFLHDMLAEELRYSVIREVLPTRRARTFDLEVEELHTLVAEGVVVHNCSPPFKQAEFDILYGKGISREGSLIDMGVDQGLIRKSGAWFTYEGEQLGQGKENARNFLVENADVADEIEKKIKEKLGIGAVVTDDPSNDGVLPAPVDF
# Arbovirus inh repeat = second read-out of Arbovirus inh, no call of its own (marks repeat the call); inhibition, %; measured here: 10K subset replicate screen; many hits read low in the repeat;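 first of two repeat runs on a subset; 0% = infected and 100% = uninfected wells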
# An asterisk follows results filed as active; u = inconclusive; x = no result given. The list is partial (hit frequency here may not be typical).
SMILES,Arbovirus inh,Mtb bLac sens,YopH PTP inh,Mtb growth,RecA intein inh,others
Cc1ccc(NC(=O)CS(=O)CC(=O)NCCCN(C)c2ccccc2)cc1 (configuration not stated),7,-9,-23,6%,2.5,
O=C(CSc1nc(=O)n2ccccc2n1)N1CCN(c2ccccc2)CC1,x,-2,x,x,-3.1,
CCN(CC)C(=O)Cn1cc(SCC(=O)Nc2cc(C)on2)c2ccccc21,0,5,x,-2%,-2.2,
CC(=O)c1c(-c2ccc(Cl)cc2Cl)noc1C,x,-4,x,3%,0.0,
C=CCNC(=S)NN(c1ccccc1)c1ccccc1,3,-1,x,-2%,-1.6,
Cc1cccnc1Nc1nc(-c2ccc(F)cc2)cs1,x,6,x,x,-2.6,
COc1ccc(C(=O)Nc2ccccc2-c2ccccc2)cc1Cl,-6,2,-32,12%,13,
Cc1ccc(S(=O)(=O)NC(C)C(c2cccs2)N2CCN(C)CC2)cc1 (configuration not stated),4,3,-19,-5%,1.2,
O=C(CSc1nnc2ccccn12)c1ccc(Cl)cc1,8,-14,x,1%,0.6,
Cc1nc(C)c(-c2ccnc(/N=C/NO)n2)s1,x,1,x,0%,-2.1,
O=C(Nc1cccc(Oc2ccc3c(c2)C(=O)NC3=O)c1)c1ccco1,-1,-3,-6,-10%,2.6,
COCc1c(C(=O)OC)nnn1-c1ccc(C(F)(F)F)cc1[N+](=O)[O-],1,4,x,0%,0.3,
Cc1ccc(S(=O)(=O)N2CCN(Cc3cccc(C)c3O)CC2)cc1,-1,-4,-35,-2%,-7.7,
CCc1ccccc1NC(=S)NC1CC2CCCC(C1)N2Cc1cccs1 (configuration not stated),7,5,-35,3%,2.3,
CC(C)OC(=O)NC(c1ccccc1)C(Cl)(Cl)Cl (configuration not stated),3,2,-6,16%,2.3,

# Of the compounds above, these have a carbonyl joined to an NH by a bond outside any ring:
SMILES,Arbovirus inh,Mtb bLac sens,YopH PTP inh,Mtb growth,RecA intein inh,others
Cc1ccc(NC(=O)CS(=O)CC(=O)NCCCN(C)c2ccccc2)cc1 (configuration not stated),7,-9,-23,6%,2.5,
CCN(CC)C(=O)Cn1cc(SCC(=O)Nc2cc(C)on2)c2ccccc21,0,5,x,-2%,-2.2,
COc1ccc(C(=O)Nc2ccccc2-c2ccccc2)cc1Cl,-6,2,-32,12%,13,
O=C(Nc1cccc(Oc2ccc3c(c2)C(=O)NC3=O)c1)c1ccco1,-1,-3,-6,-10%,2.6,
CC(C)OC(=O)NC(c1ccccc1)C(Cl)(Cl)Cl (configuration not stated),3,2,-6,16%,2.3,

# (more compounds)
SMILES,Arbovirus inh,Mtb bLac sens,YopH PTP inh,Mtb growth,RecA intein inh,others
Cc1cc(C2=NNC(=NCc3ccccc3)SC2)c(C)n1-c1c(C)n(C)n(-c2ccccc2)c1=O,-1,x,-4,9%,1.3,
C=C[C@H]1[C@H](OC2OC(CO)C(O)C(O)C2O)OC=C(C(=O)OC)[C@H]1C[C@H]1CC(=O)C[C@H](CC(=O)CCc2ccc(O)cc2)O1 (some centres not stated),x,5,x,9%,-2.0,
Cc1c(NC(=O)c2cc(-n3cnnc3)ccc2Cl)cccc1-c1nc2ccccc2s1,-1,41,-34,8%,-3.2,
COC(=O)c1sccc1-c1ccc(C(=O)Nc2ccccc2)o1,6,56,-15,1%,6.0,
CCCCN1Cc2c(nc3cc(-c4ccco4)[nH]n3c2=O)C1=O,x,34,x,-10%,x,
CN(Cc1ccco1)S(=O)(=O)c1nnc(NC(=O)c2ccccc2Cl)s1,x,6,x,x,0.1,
COc1ccc(CN2C(=O)NC3(CCOc4ccccc43)C2=O)cc1F (configuration not stated),-2,0,11,x,-2.9,
COc1ccc(N2CCN(C(=O)CSc3ncnc4scc(-c5ccc(C)cc5)c34)CC2)cc1,x,46,-15,5%,11,
O=C(COc1cc(O)c2c(=O)cc(-c3ccccc3)oc2c1)c1ccccc1,-2,44,-21,-5%,-1.4,
CCOC(=O)C1(CCc2ccccc2)CCN(C(=O)Cc2nonc2C)CC1,3,3,x,5%,3.7,
Cc1cccc(OCc2n[nH]c(=S)n2C2CCCCC2)c1,-23,0,-18,3%,2.6,
CCCC(NC(=O)c1ccccc1)c1nc2ccccc2n1Cc1ccc(C(=O)OC)o1 (configuration not stated),-2,-7,-190,-2%,0.9,
NC(=S)NNC(=O)c1cccc(Br)c1,8,2,x,1%,-1.4,
O=c1c2oc3ccccc3c2[nH]c(=S)n1-c1ccccc1,-8,-2,-13,-2%,4.5,
Cc1ccc(NC2c3ncccc3C(=O)N2Cc2ccc(F)cc2)cc1 (configuration not stated),7,2,-37,19%,10,
CCSc1ncc(Cl)c(C(=O)Nc2ccccc2C)n1,x,15,x,x,-6.2,
CN=C1S/C(=C\c2cn(C(C)=O)nc2-c2ccccc2)C(=O)N1C,x,x,-24,1%,x,
O=C(c1ccc(-n2cncn2)c([N+](=O)[O-])c1)N1CCN(S(=O)(=O)c2ccccc2F)CC1,x,2,x,x,-3.4,
Cc1ccc2nc(NC(=O)c3ccccn3)sc2c1,-30,97,x,u,0.5,
O=C(NC1CCCCC1)C1CCN(S(=O)(=O)c2cccc3cccnc23)CC1,-1,-4,-34,-9%,x,Arbovirus inh repeat=2
CCCNC(=S)Nc1ccc(S(N)(=O)=O)cc1,3,1,x,-3%,-4.0,
CCCCCCN(C(=O)CCCCCN1C(=O)NC(c2ccc(-c3ccccc3)cc2)C(C(=O)OCc2ccccc2)=C1C)C(C(=O)NCCCC)c1ccccn1 (configuration not stated),x,x,x,24%,0.4,
CCn1cc(C(=O)NCCCN2CCCC(C)C2)c(=O)c2cc(S(=O)(=O)N3CCOCC3)ccc21 (configuration not stated),x,0,x,x,-2.6,
CN(CC(=O)Nn1cnnc1)S(=O)(=O)c1cc(Cl)ccc1Cl,2,7,-18,-6%,1.8,
CCCOc1ccc(/C=N/Nc2cc(N3CCOCC3)ncn2)c(O)c1,x,8,x,x,14,
O=C1Nc2ccccc2N(O)N1c1cc(-c2ccccc2Cl)no1,-2,-4,-27,-4%,-1.5,
CC(C)c1ccc(NC(=S)NCCc2c[nH]c3ccccc23)cc1,-35,9,-14,35%,8.6,
CCC(C)c1ccccc1NC(=O)c1cc(C)no1 (configuration not stated),x,3,x,x,1.9,
CC(=O)N(C)C1=C(O)c2ccccc2C(=O)C1=O,-6,u,4,-4%,9.6,
CCn1cc(/C=N\NC(=O)c2ccc3c(c2)c(C)c(C)n3Cc2ccccc2)c(C)n1,-5,64,-19,x,25,
COc1ccc(NC(=O)N2CCN(C(=O)C3CCCO3)CC2)cc1 (configuration not stated),x,-11,x,x,0.2,
COc1ccccc1CNC(=O)COc1cc2c(c3oc(=O)cc(C)c13)CCC(C)(C)O2,x,-6,x,x,8.3,
CN(C(=O)CC1C(=O)NCCN1Cc1ccc(F)c(F)c1)C1CCCCC1 (configuration not stated),x,-13,x,x,2.4,
CN(C)C(=O)Oc1cc(=O)n2c3c(cccc13)CCC2,-2,1,-15,-1%,-1.7,
COc1ccc(NC(=O)c2cccc(NC(=O)c3ccccc3)c2)c(OC)c1,x,3,x,x,-0.6,
O=C(Nc1cccc2nsnc12)c1cccnc1,-8,-4,-12,-18%,0.9,
Cc1csc2nc(O)c(C(=O)NCc3ccc4c(c3)OCO4)c(=O)n12,x,-7,x,x,-1.1,
O=C(c1cc2ccccc2o1)N1CCN(c2cccc(C(F)(F)F)c2)CC1,x,7,x,x,1.2,
C=CCNC(=O)/C(C#N)=C/c1c(C)nn(-c2ccc(Cl)cc2)c1Cl,5,14,-15,5%,9.4,
O=C(O)C(Cc1c[nH]c2ccccc12)NS(=O)(=O)c1cccc2nsnc12 (configuration not stated),-7,0,-14,2%,1.0,
CN1CCN(c2ccc(NC(=S)NC(=O)/C=C/c3ccco3)cc2)CC1,x,1,x,x,0.1,
O=C(O)c1ccc(N/N=C/c2ccc(-c3ccccc3)cc2)cc1,-7,x,x,16%,14,
O=C(O)C(Cc1c[nH]c2ccccc12)NS(=O)(=O)c1ccc2ccccc2c1 (configuration not stated),-3,9,-20,-4%,0.8,
C=CCNC(=S)/N=c1/scc(C)n1C,5,-10,-25,-3%,-1.8,
CCCCn1c(=O)c(-[n+]2ccccc2)c([O-])c2ccccc21,-1,2,-8,-4%,-5.3,

# The closing 2 records of the part before lead into the next:
SMILES,Arbovirus inh,Mtb bLac sens,YopH PTP inh,Mtb growth,RecA intein inh,others
C=CCNC(=S)/N=c1/scc(C)n1C,5,-10,-25,-3%,-1.8,
CCCCn1c(=O)c(-[n+]2ccccc2)c([O-])c2ccccc21,-1,2,-8,-4%,-5.3,
Cc1c(S(=O)(=O)c2ccccn2)c(N)n(Cc2cccc(Cl)c2)c1C,x,x,x,-3%,10.0,
COC(=O)C(NNc1ccccc1)(NC(=O)c1cccc(F)c1)C(F)(F)F (configuration not stated),-3,u,5,-2%,0.0,
CCOC(=O)C1C(=O)C=C(c2ccc(NS(C)(=O)=O)cc2)CC1c1ccco1 (configuration not stated),6,6,-1,-9%,-7.8,
CCCc1cc(=O)[nH]c(N2CCN(Cc3ccc4c(c3)OCO4)CC2)n1,x,0,x,x,-0.4,
CCCc1cc(C(=O)Cc2ccccn2)c(O)cc1O,x,u,x,x,-0.6,
O=C(CSc1ccccn1)Nc1ccc(NC(=O)CSc2ccccn2)cc1,8,2,x,-3%,-1.2,
O=C(Nc1ccc2nc3n(c(=O)c2c1)CCCC3)c1cccnc1Cl,x,-3,x,x,0.3,
COc1ccc(OC)c(-c2nc(C(=O)NCCCN3CCOCC3)cc3c2[nH]c2ccccc23)c1,x,-3,x,x,1.8,
COc1cc(C(=O)NC2CCN(Cc3nnnn3Cc3ccc(F)cc3)CC2)cc(OC)c1OC,-12,-4,x,0%,-4.9,
Cc1ccc(Sc2cnc(N)nc2C)cc1,7,93,x,37%,4.6,
CN(C)c1nc(N/N=C\c2ccc(Cl)c([N+](=O)[O-])c2)nc(Nc2ccc(F)cc2)n1,x,2,-13,11%,1.0,
CCC(Sc1ncccc1Nc1ccccn1)C(=O)O (configuration not stated),x,4,x,x,-1.2,
Nc1nc2c(nc(SCc3ccccc3Br)n2C2OC(CO)C(O)C2O)c(=O)[nH]1 (configuration not stated),-1,1,x,-5%,1.1,
Fc1ccc(N/N=C2/CCSc3sccc32)c(F)c1,x,-2,x,-3%,1.9,
COc1cccc(/C=C/C(=O)OCC(=O)Nc2ccc(Cl)cn2)c1,13,69,x,3%,-2.5,
CCOC(=O)c1c(C)[nH]c(-c2csc(N)n2)c1C,-6,x,x,11%,x,
O=c1c2cccnc2n(-c2ccccc2)n1Cc1c(Cl)cccc1Cl,22,-6,x,-1%,-2.8,
O=C(Nc1ccc(Cl)cc1)Nc1nnc(CSCc2ccccc2Cl)s1,13,1,-3,-4%,1.1,
O=c1c2ccccc2nc2n1CC/C2=C\c1ccccc1[N+](=O)[O-],6,x,-1,2%,x,
CCCCOC(=O)C1=C(N)OC2=C(C(=O)CC(C)(C)C2)[C@]12C(=O)N(C)c1ccccc12,4,-4,-45,-8%,-0.1,
CC(C)CCN1CCN(Cc2nc(-c3ccccc3)cs2)CC1CCO (configuration not stated),3,2,x,4%,0.6,
O=C(Nc1nccs1)C1CCCN1S(=O)(=O)c1ccc(Cl)cc1 (configuration not stated),5,1,-32,-8%,1.4,
Cc1cnc(C(=O)OCC(=O)NCCCc2ccccc2)cn1,13,10,x,2%,-2.4,
N#CC(C#N)=Cc1ccc(N2CCCC2)cc1,-1,-12,x,2%,-2.9,
O=S(=O)(c1cccc(COc2ccc(Cl)cc2Cl)c1)N1CCOCC1,x,1,x,x,6.0,
COc1ccc(-n2nc3c(c2NC(=O)c2ccco2)CS(=O)(=O)C3)cc1,x,3,x,x,-0.7,
O=S(=O)(NCCc1ccccn1)c1ccc(-c2ccccn2)s1,x,-5,x,-6%,x,
COc1ccc(CCNC(=O)C(=O)NCC2OCCN2S(=O)(=O)c2cc(F)ccc2F)cc1OC (configuration not stated),x,0,x,x,-7.2,
Cc1ccsc1/C=N/n1cnc2sc(C)c(C)c2c1=O,-3,35,-38,4%,-0.5,
O=C(CCN1CCOCC1)Nc1ccc(Br)cc1C(=O)c1ccccc1,x,7,x,x,8.8,
Cc1ccc(N(CC(=O)NC(C)(C)C)C(=O)CS(=O)CC(=O)Nc2ccc3c(c2)OCO3)cc1 (configuration not stated),3,-1,x,-3%,x,
Cc1ccc(S(=O)(=O)Nc2c(C)n(C)n(-c3ccccc3)c2=O)cc1C(=O)OC(C)C(=O)N(C)c1ccccc1 (configuration not stated),10,-7,x,6%,-3.7,
COc1ccc(C(=O)N2CC(=O)Nc3ccccc32)cc1S(=O)(=O)N1CCOCC1,x,-8,x,-7%,-4.5,
CC1CN(c2nc3c(c(=O)n(C)c(=O)n3C)n2Cc2c(Cl)cccc2Cl)CC(C)O1 (configuration not stated),x,-9,x,x,-0.4,

# Source: PubChem
